RanGTP-Impb inh – inhibitors of RanGTP-importin-beta interaction, primary screen, biochemical, FRET, CFP-Ran, YFP-importin-beta, homogeneous; cell-free CFP-Ran/YFP-importin-beta FRET ratio; inhibition, % (no concentration beside the values); 1.1% of 300,000 active; AID 2216;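 active means most replicates above 15%; inconclusive means exactly half above 15%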;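 further: 0% = DMSO wells and 100% = Ran loaded with GDP instead of GTP; wells of about 40 µL received 100 nL stock; the first replicate is given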
UCH37 DUB inh – inhibitors of human deubiquitinating enzyme UCH37 | Q9Y5K5 | purified proteasome/UCH37, Ub-AMC cleavage fluorescence | inhibition, % (concentration not given with the values) | 0.33% of 330,000 active | AID 588478;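 active means mean of two replicates above 20%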;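 further: 0% = compound-free wells with enzyme and 100% = wells lacking proteasome; stock transfer was 100 nL into about 20 µL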
Target sequence (Q9Y5K5 whole entry, looked up): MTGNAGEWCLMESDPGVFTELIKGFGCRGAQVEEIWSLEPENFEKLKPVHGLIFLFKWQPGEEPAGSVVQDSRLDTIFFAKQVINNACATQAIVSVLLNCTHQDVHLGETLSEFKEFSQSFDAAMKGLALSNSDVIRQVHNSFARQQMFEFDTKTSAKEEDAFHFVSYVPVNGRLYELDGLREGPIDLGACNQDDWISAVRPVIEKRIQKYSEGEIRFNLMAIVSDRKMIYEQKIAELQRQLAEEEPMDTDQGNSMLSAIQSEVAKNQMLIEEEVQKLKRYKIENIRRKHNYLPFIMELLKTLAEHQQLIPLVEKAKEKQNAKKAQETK
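Signal – fluorescence, ex 355 nm, em 460 nm · System – Proteasome-bound UCH37 · Input – 0.15 nM proteasome as dispensed · Timing – 30 min preincubation with enzyme, 25 min cleavage at room temperature · Read-out basis – percent inhibition of cleavage signal versus uninhibited and no-proteasome wells · Medium – Tris-HCl pH 7.4 with ATP-MgCl2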
E coli growth – E. coli growth inhibition; Escherichia coli growth, OD600, 23 h; stronger effect = lower value; OD600 absorbance (test concentration not listed); 0.21% of 330,000 active;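 active means OD600 absorbance below the run mean of sample wells minus 3.6 SD, in any replicate, cut at about 0.56 in these data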;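 further: stock transfer was 300 nL into about 60 µL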
AF4-AF9 inh – blocks AF4 peptide binding to human AF9. inhibition, % at 10 µM. 0.47% of 350,000 active. P42568. AlphaScreen, biotin-AF4 peptide binding to FLAG-AF9;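 active means every replicate reaching a set inhibition limit, whatever the replicate mean, cut at about 25% in these data; inconclusive means mean inhibition reaches that limit but some replicates miss it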;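 further: 0% = plate neutral control median and 100% = total signal loss; the record names both 10 and 1 µM as test concentration; the first replicate is given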
Vif TR-FRET – HIV-1 Vif–A3G interaction blockers – biochemical, TR-FRET, GST-Vif 1-94, biotin-A3G peptide, dose response retest, primary screen (AID 1117319); TR-FRET GST-Vif / biotin-A3G peptide binding; higher % means a stronger effect; test concentration not given here; strong numbers were not always called active; one-dose inhibition, %; IC50 in µM for titrated hits; 0.57% of 260,000 active;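 active means above the screen mean plus three standard deviations and confirmed in dose response; inconclusive means results disagree or hit not tested in dose response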;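 further: Vif residues 1-94 fused to GST binding biotinylated APOBEC3G peptide 110-148; 0% = full assay without inhibitor and 100% = GST in place of GST-Vif; retest series ran down from 100 µM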
HNF4A DNA FP – change in binding of human HNF4 alpha to DNA; 0.3% of 360,000 active; HNF4a-FITC DNA binding, fluorescence polarization, 1 h; activity change, % at 10 µM; in the data active means activity change above about 30%, passing the limit was not always enough;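 further: controls were the assay level and a saturating level of protein; the project sought stronger binding though the title names inhibitors; some compounds called inactive have numbers as strong as hits; positive values seem to mean higher polarization but the record does not say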
Target sequence (P41235 whole entry, looked up): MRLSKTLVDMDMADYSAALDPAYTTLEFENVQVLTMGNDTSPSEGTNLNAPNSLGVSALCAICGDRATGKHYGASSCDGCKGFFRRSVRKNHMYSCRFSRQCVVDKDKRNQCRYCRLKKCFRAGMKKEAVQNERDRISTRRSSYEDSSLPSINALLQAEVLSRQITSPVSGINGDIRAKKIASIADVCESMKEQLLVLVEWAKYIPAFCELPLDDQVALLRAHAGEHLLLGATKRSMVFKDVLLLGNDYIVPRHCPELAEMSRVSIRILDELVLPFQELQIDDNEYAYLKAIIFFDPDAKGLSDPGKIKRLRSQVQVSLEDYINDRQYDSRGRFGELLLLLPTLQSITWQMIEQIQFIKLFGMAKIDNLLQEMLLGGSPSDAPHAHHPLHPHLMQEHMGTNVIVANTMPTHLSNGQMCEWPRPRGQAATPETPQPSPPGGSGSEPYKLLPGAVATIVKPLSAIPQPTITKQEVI
FGF22 binding – shifts melting point of recombinant human FGF22; recombinant FGF22 thermal shift, SYPRO orange fluorescence; percent of sucrose octasulfate shift, DMSO zero; calls only at 9.99 µM; 1.5% of 340,000 active; Q9HCT0; AID 651658;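 active means melting point raised past a set limit in the mean and every replicate; inconclusive means no clear call; three in four hits are not shown here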
Target sequence (Q9HCT0 whole entry, looked up): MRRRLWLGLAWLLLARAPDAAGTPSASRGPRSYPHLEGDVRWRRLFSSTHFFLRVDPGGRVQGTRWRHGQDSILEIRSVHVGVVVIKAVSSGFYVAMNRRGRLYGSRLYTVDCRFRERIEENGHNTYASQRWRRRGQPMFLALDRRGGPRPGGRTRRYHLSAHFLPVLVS
Starred values were filed as active, the others as inactive; i = inactive; ? = inconclusive; · = not tested or not shown; + = active, no number; & = joins results of further samples.

SMILES | RanGTP-Impb inh | UCH37 DUB inh | E coli growth | AF4-AF9 inh | Vif TR-FRET | HNF4A DNA FP | FGF22 binding
CCOC(=O)c1c(C)[nH]c(C)c1S(=O)(=O)N(C)CC(=O)Nc1ccccc1C | -1.3 | -0.5 | 0.633 | -1.9 | · | 3.4 | i
Cc1noc(C)c1C(=O)Nc1ccccc1N1CCOCC1 | · | 5.1 | 0.664 | 6.5 | -3.5% | 3.7 | i
C/C(=N\NC(=O)c1ccc(N/N=C(\C)c2ccc(O)cc2)cc1)c1ccc(O)cc1 | 0.5 | · | · | 1.7 | 27.2% | -1.3 | ·
CCCOc1ccc(C(=O)Nc2ccc(CN3CCOCC3)cc2)cc1 | 2.3 | 1.2 | 0.628 | -2.7 | · | 3.6 | i
CSCCC(NS(=O)(=O)c1ccc(C)cc1)C(=O)NNC(=O)c1csc(N2CCOCC2)n1 (stereo unspecified) | 0.7 | 0.7 | 0.664 | -1.2 | · | 4.5 | i
CCN1CCN(CCCNC(=O)C2c3ccccc3C(=O)N(c3ccc(OC)cc3)C2c2ccc(OC)cc2)CC1 (stereo unspecified) | 1.2 | 3.4 | 0.672 | 0.9 | · | -0.7 | i
CSC1=C(C#N)C(=O)NC(c2ccc(Cl)cc2)S1 (stereo unspecified) | 3.2 | 8.2 | 0.639 | · | 16.6% | -2.2 | i
COc1ccccc1/C=C/C(=O)NC(=S)Nc1ccccn1 | -0.3 | 3.7 | 0.668 | -4.7 | · | -2.2 | i
Cc1ccc[n+](CC(=O)Nc2ccc([N+](=O)[O-])cc2Cl)c1 | 176.1* | 0.7 | 0.725 | · | ? | 0.1 | ·
NC(=O)CC(NC(=O)c1cccc(Br)c1)c1ccc(NC2CCC2)c([N+](=O)[O-])c1 (stereo unspecified) | -1.1 | 0.6 | 0.686 | 1.4 | · | 4.1 | i
O=C(Nc1ccccc1)OCCc1ccccn1 | · | -0.5 | 0.67 | 5.7 | -0.4% | 3.7 | i
NC(=O)C1(N2CCCCC2)CCN(C(=S)Nc2cc(F)cc(F)c2)CC1 | -4.6 | -5.0 | 0.687 | -1.8 | -0.1% | -5.8 | i
O=C(CN1CCOCC1)n1c2c(c3ccccc31)CCCC2 | 0.6 | 4.9 | 0.659 | 3.7 | 21.9% | 2.5 | i
O=C(Nc1ccc(O)c(C(=O)O)c1)Oc1ccccc1 | -5.1 | -119.2 | 0.678 | -2.0 | ? | -4.2 | i
Cc1onc(-c2ccccc2)c1C(=O)NC(=S)NNC(=O)c1ccccc1O | 1.8 | -4.9 | 0.624 | -1.8 | · | -0.7 | i
COc1cc(C(=O)Nc2scc(-c3ccc(Br)cc3)c2C(=O)O)cc(OC)c1OC | -0.9 | -14.0 | 0.67 | -0.7 | -4.2% | 4.3 | i
COc1ccc(CN2C3CCC2CC(NC(=O)c2cccc(F)c2)C3)cc1 (stereo unspecified) | -2.7 | 4.4 | 0.693 | 1.7 | · | -1.2 | i
COc1cc2[nH]c(=S)n(C3CCCC3)c(=O)c2cc1OC | 4.4 | 4.1 | 0.731 | · | 0.2% | 0.4 | ·
COC(=O)c1[nH]c2ccccc2c1NS(=O)(=O)c1ccc(OC)cc1OC | -18.0 | 5.3 | 0.713 | · | -4.5% | 1.6 | ·
Cc1ccc(C)c(NC(=O)CC2Sc3ccccc3NC2=O)c1 (stereo unspecified) | · | · | · | -17.5 | -3.5% | -8.8 | i
Cc1c(C(=O)NCc2ccccc2)cnn1-c1ccccc1 | 5.4 | 0.7 | 0.666 | · | -2.1% | -1.4 | ·
Cc1cccc(-c2nc3ccccc3c(=O)n2NC(=O)Cc2ccc(Cl)cc2)c1 | 5.1 | 4.7 | 0.746 | -5.1 | · | 1.4 | i
CC(C)OCCCNC(=O)c1cc(S(=O)(=O)N2CCc3ccccc32)cn1C | 6.1 | 5.6 | 0.715 | -9.3 | · | -0.7 | i
COCCNC(=O)c1cc2c(-c3ccc(Cl)cc3)nn(C)c2s1 | -4.2 | -52.3 | 0.757 | -6.1 | 0.9% | 2.9 | i
CCOc1cc(N2CCOCC2)c(OCC)cc1NC(=O)COC(=O)COc1cc(C)cc(C)c1 | -1.1 | -0.3 | 0.718 | 1.5 | 2.5% | -3.7 | i
CC(C)c1ccc(N(CC(=O)NC(C)(C)C)C(=O)CCC(=O)Nc2nccs2)cc1 | -0.8 | 6.2 | 0.7 | -8.8 | · | 0.1 | i
COc1c(O)ccc(/C=C(\C#N)c2nc3ccccc3[nH]2)c1[N+](=O)[O-] | 19.9* | 3.2 | · | 10.9 | 12.3% | 8.3 | +
Cc1ccccc1N1CCN(Cc2ccc([N+](=O)[O-])o2)CC1 | 0.9 | 5.8 | 0.705 | 3.2 | · | 1.3 | i
O=C(NCc1n[nH]c(=S)n1-c1ccc(F)cc1)c1ccc(S(=O)(=O)N2CCCC2)cc1 | ? | 3.4 | 0.676 | · | 7.8% | -3.6 | ·
O=C(Cc1ccccc1)Nc1nonc1NC(=O)c1ccccc1 | 0.7 | 4.6 | 0.725 | · | -2.6% | -0.7 | ·
Cc1ccc2c(c1)C(=O)C(=O)N2CC1COc2ccccc2O1 (stereo unspecified) | -0.8 | 6.2 | 0.659 | 14.1 | 8.7% | 2.8 | i
C[C@@]12C(C[C@H](O)[C@@]34C[C@@H](CCC13)[C@@H](CO)C4=O)[C@](C)(C(=O)O)CC[C@@H]2O (stereo partly specified) | · | · | · | -2.1 | · | 5.7 | i
O=C(NCCCN1CCCCCC1)c1ccc2c(c1)NC(=O)C(N1CCOCC1)S2 (stereo unspecified) | 4.7 | 22.5* | 0.694 | · | -2.0% | 1.4 | ·
CN1CCc2nc(SCC(=O)Nc3cccc(F)c3)c(C#N)c(-c3cccs3)c2C1 | -6.9 | 3.7 | 0.693 | · | ? | -4.0 | ·
CCCCn1c(N)c(N(CCC(C)C)C(=O)C2=COCCO2)c(=O)[nH]c1=O | 2.5 | 0.3 | 0.684 | -0.6 | · | 1.7 | i
COc1ccc(-c2noc(COc3ccc(Cl)c(C)c3)n2)cc1 | -2.8 | 3.8 | 0.776 | 0.1 | -4.4% | 6.4 | i
COc1ccc(OCc2n[nH]c(=S)o2)cc1 | 1.2 | 6.6 | 0.748 | · | -1.4% | 0.1 | ·
CC(=O)N1Cc2ccccc2CC1C(=O)OCC(=O)c1c(N)n(C)c(=O)n(C)c1=O (stereo unspecified) | · | 0.7 | 0.626 | -12.9 | -2.1% | 0.5 | ·
CCOc1ccc(C2Nc3ccccc3NC3=C2C(=O)CC(C)(C)C3)cc1OC (stereo unspecified) | -2.1 | 10.4 | 0.65 | -3.7 | · | 1.2 | i
CCOC(=O)C1CCN(C(=O)COC(=O)C2CCN(S(=O)(=O)c3ccc(C)c(C)c3)CC2)CC1 | 0.7 | -2.4 | 0.69 | -1.7 | -4.8% | -1.4 | i

At a glance, some entries already given.
SMILES | RanGTP-Impb inh | UCH37 DUB inh | E coli growth | AF4-AF9 inh | Vif TR-FRET | HNF4A DNA FP | FGF22 binding
CCOC(=O)c1c(C)[nH]c(C)c1S(=O)(=O)N(C)CC(=O)Nc1ccccc1C | -1.3 | -0.5 | 0.633 | -1.9 | · | 3.4 | i
Cc1noc(C)c1C(=O)Nc1ccccc1N1CCOCC1 | · | 5.1 | 0.664 | 6.5 | -3.5% | 3.7 | i

Other results follow:
SMILES | RanGTP-Impb inh | UCH37 DUB inh | E coli growth | AF4-AF9 inh | Vif TR-FRET | HNF4A DNA FP | FGF22 binding
CC1C(=O)Nc2ccccc2N1C(=O)c1ccc(O)cc1 (stereo unspecified) | -1.4 | 1.1 | 0.681 | 7.1 | -6.5% | -3.0 | i
O=C(CCc1nc2ccccc2c(=O)[nH]1)Nc1nnc(SCc2ccccc2)s1 | 1.3 | 2.5 | 0.668 | -0.2 | 1.2% | 7.1 | i
COc1ccc(NC2CCCN(C(=O)CCN3Cc4ccccc4C3=O)C2)cc1 (stereo unspecified) | -1.2 | 1.8 | 0.69 | -4.3 | · | -0.5 | i
COC(=O)[C@H](C)[C@H]1C[C@]1(C)[C@H](NC(=O)OCc1ccccc1)c1ccccc1 | 2.7 | 31.0* | · | · | ? | -1.6 | ·
CC(=O)Nc1ccc(S(=O)(=O)N2CCN(CCCOc3ccccc3Cl)CC2)cc1 | -0.8 | 2.3 | 0.663 | · | 79.4% | -0.5 | ·
Cc1ccc(N(CC(=O)N2CCOCC2)S(=O)(=O)c2ccccc2)cc1 | 0.2 | 0.5 | 0.654 | · | -0.6% | -1.1 | ·
COc1ccccc1-c1cc(C(=O)NC(C)C)no1 | 2.8 | 0.1 | 0.696 | 4.8 | 0.2% | -1.4 | i
CCOc1ccc(N(CC(=O)N/N=C/c2cc([N+](=O)[O-])ccc2Cl)S(C)(=O)=O)cc1 | 1.3 | · | · | · | 18.5% | -1.5 | ·
O=C(CNS(=O)(=O)c1ccccc1)Nc1ccc(F)cc1F | 0.3 | 3.6 | 0.719 | -1.2 | · | 2.1 | i
O=C(COc1ccc(Cl)cc1)NCCCNC(=O)c1cnccn1 | -2.1 | · | · | 1.7 | · | 3.5 | i
O=C1C2C3C=CC(CC3)C2C(=O)N1c1cccc(Br)c1 (stereo unspecified) | 4.2 | 3.3 | 0.688 | -1.1 | · | -2.1 | i
CCN(CC)S(=O)(=O)c1cc(NC(=O)CN2C(=O)NC(C)(c3ccccc3)C2=O)ccc1C (stereo unspecified) | 1.0 | 3.7 | 0.684 | 0.5 | 2.4% | 1.6 | i
O=C(C[C@@H]1C=C[C@@H](NC(=O)C2CC2)[C@@H](CO)O1)NCc1ccccc1Cl | · | · | · | -0.2&2.7 | · | 4.0 | i
O=C(NNC(=O)c1ccccn1)c1cccc([N+](=O)[O-])c1 | -1.6 | 1.5 | 0.656 | -0.9 | -0.9% | 0.5 | i
CCOc1ccccc1C(=O)N/N=C/c1coc2ccc(Cl)cc2c1=O | · | · | · | 0.2 | · | -5.6 | ·
COc1ccc(NC(=O)c2cc(-c3ccc(C)cc3)on2)cc1 | 5.1 | · | · | 0.9 | -1.0% | -1.4 | i
COc1ccc(-n2c(SCC(=O)OC(C)C)nnc2-c2ccccn2)cc1 | 3.1 | -0.3 | 0.658 | · | 30.8% | -4.0 | ·
CN(CC(=O)Nc1ccccc1C(=O)NC1CC1)Cc1ccco1 | · | -0.3 | 0.674 | 2.0 | 10.9% | 4.9 | i
COc1cc(/C=N/O)cc(Cl)c1OC | 6.1 | · | · | 6.1 | 3.5% | -1.4 | i
N=C1C(c2nc3ccccc3[nH]2)=C(O)CN1c1ccccc1 | 3.9 | -4.2 | 0.765 | · | 2.9% | 4.5 | ·
COc1ccc(-n2nc3c(N4CCC(C(=O)NC5CCCCC5)CC4)nnc(C)c3c2C)cc1 | -2.4 | 1.0 | 0.675 | · | -111.4% | 4.5 | ·
O=C(CCn1cnc2ccccc2c1=O)Nc1cccc(Cl)c1 | ? | 0.7 | 0.695 | · | -10.3% | 2.3 | ·
O=C(Cc1c(Cl)cccc1Cl)NC1CC1 | -0.9 | -0.2 | 0.704 | -1.6 | -5.7% | -1.1 | i
O=C(NCCCN1CCOCC1)C1CCCN(S(=O)(=O)N2CCCCC2)C1 (stereo unspecified) | -0.7 | 1.2 | 0.693 | -4.6 | · | 0.4 | i
CCOc1ccc(C(=S)NC2CCCCC2)cc1 | -8.4 | 0.8 | 0.713 | · | -3.5% | -0.9 | ·
CCCCCCCN1C2=NCCN2c2ccccc21 | 4.5 | 4.2 | 0.654 | -0.1 | -11.0% | 0.3 | i
CCCCn1c(N)c(N(CCOC)C(=O)C2CCN(c3ncnc4sc(C)c(C)c34)CC2)c(=O)[nH]c1=O | 2.8 | -1.8 | 0.636 | 11.3 | 1.0% | 4.7 | i

Screens from PubChem BioAssay.

Only part of the results is shown; rates above refer to the full screens.
